# Assay outcomes (PubChem)
# Proteasome disasm: blocks ATP-dependent breakdown of the yeast 26S proteasome | inhibition of disassembly, % (no concentration beside the values) | anti-FLAG beads, GFP-proteasome disassembly, flow cytometry | 0.2% of 24,000 active;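 active = above 40%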;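 also: plate controls were ATP control with full disassembly for no effect and ATP-gamma-S intact proteasomes for full effect; higher percent means more bead fluorescence retained so stronger block of disassembly; stock transfer was 100 nL into about 10 µL; wells with too few beads may also be inconclusive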
# VCAM-1 up: enhancers of VCAM-1 display on endothelial cells, cell-based, plate reader, pooled HUVEC, TNFa stimulus (AID 455). HUVEC TNFa-induced VCAM-1 immunofluorescence, plate reader; numbers were filed only for top-ranked candidate wells. augmentation, % at 5 µM. 0.2% of 10,000 active;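 active = a compound raising TNF-alpha-driven VCAM-1 surface staining, with its hit status upheld on visual or statistical review; inactive = the rest, including hits rejected on review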;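 also: 0% = TNFa with vehicle and 100% = strongest image-checked hit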
# An asterisk follows results filed as active; i = inactive; . = not tested or not shown. The list is partial, so the mix of outcomes need not match the whole.
# The first 16 compounds (preview)
SMILES,Proteasome disasm,VCAM-1 up
CC12CN3CC(C)(CN(C1)C3c1cc(Br)ccc1O)C2=O (stereo not given),3.1,i
CCOC(=O)N1CCN(Cc2nc3c(c(=O)[nH]c(=O)n3C)n2CCCc2ccccc2)CC1,-2.7,.
O=C(C1CCC(CNS(=O)(=O)c2cccs2)CC1)N1CCCCC1 (stereo not given),-0.1,.
CNC(=O)c1ccc(N(Cc2ccccc2C)S(C)(=O)=O)cc1,-0.1,i
O=C(CN1C(=O)COc2ccccc21)NCCCN1CCN(Cc2ccccc2)CC1,0.5,i
CCn1ncc(C2=NOC(C(=O)NCc3ccc(Cl)cc3)C2)c1C (stereo not given),-3.7,i
O=c1cc(NCc2ccccc2)nc2n1CCCS2,1.2,i
CC(NC(=O)COc1cc(=O)n(C)c2ccccc12)c1ccc2c(c1)OCCO2 (stereo not given),-1.9,.
O=C(NC1CCCC1)c1c[nH]c2ccc(F)cc2c1=O,5.0,i
O=C(c1cnc2n(c1=O)CCS2)N1CCCc2ccccc21,0.6,.
Cc1cccc(N(C)C(=O)c2coc(=O)c3ccccc23)c1,0.1,i
CN(Cc1ccccc1)c1nc2c(c(=O)[nH]c(=O)n2C)n1Cc1ccccc1Cl,0.0,i
O=C(NCc1ccco1)C1CCCN(S(=O)(=O)c2cccc3cccnc23)C1 (stereo not given),1.1,.
C=CCn1c(SCc2ccc3nonc3c2)nnc1-c1cccs1,0.1,i
Cc1occc1C(=O)Nc1nnc(C2CCCCC2)s1,-1.5,i
C=CCn1c(SCc2cccc(C#N)c2)nnc1-c1ccccc1O,0.1,i

# All compounds of this part (from the top)
SMILES,Proteasome disasm,VCAM-1 up
CC12CN3CC(C)(CN(C1)C3c1cc(Br)ccc1O)C2=O (stereo not given),3.1,i
CCOC(=O)N1CCN(Cc2nc3c(c(=O)[nH]c(=O)n3C)n2CCCc2ccccc2)CC1,-2.7,.
O=C(C1CCC(CNS(=O)(=O)c2cccs2)CC1)N1CCCCC1 (stereo not given),-0.1,.
CNC(=O)c1ccc(N(Cc2ccccc2C)S(C)(=O)=O)cc1,-0.1,i
O=C(CN1C(=O)COc2ccccc21)NCCCN1CCN(Cc2ccccc2)CC1,0.5,i
CCn1ncc(C2=NOC(C(=O)NCc3ccc(Cl)cc3)C2)c1C (stereo not given),-3.7,i
O=c1cc(NCc2ccccc2)nc2n1CCCS2,1.2,i
CC(NC(=O)COc1cc(=O)n(C)c2ccccc12)c1ccc2c(c1)OCCO2 (stereo not given),-1.9,.
O=C(NC1CCCC1)c1c[nH]c2ccc(F)cc2c1=O,5.0,i
O=C(c1cnc2n(c1=O)CCS2)N1CCCc2ccccc21,0.6,.
Cc1cccc(N(C)C(=O)c2coc(=O)c3ccccc23)c1,0.1,i
CN(Cc1ccccc1)c1nc2c(c(=O)[nH]c(=O)n2C)n1Cc1ccccc1Cl,0.0,i
O=C(NCc1ccco1)C1CCCN(S(=O)(=O)c2cccc3cccnc23)C1 (stereo not given),1.1,.
C=CCn1c(SCc2ccc3nonc3c2)nnc1-c1cccs1,0.1,i
Cc1occc1C(=O)Nc1nnc(C2CCCCC2)s1,-1.5,i
C=CCn1c(SCc2cccc(C#N)c2)nnc1-c1ccccc1O,0.1,i
Cc1ccc(-n2nnc3c(=O)n(Cc4cc(C)ccc4C)cnc32)cc1,1.6,.
O=C(O)CC1Sc2nc3ccccc3n2C1=O (stereo not given),2.7,i
CCOC(=O)N1CCC(Nc2c(NCCCN(C)Cc3ccccc3)c(=O)c2=O)CC1,-1.2,.
O=C(CN1CCOc2ccccc21)N1CCC(Cc2ccccc2)CC1,1.1,.
Cc1ccc(N(C(=O)c2ccncc2)C2C=CS(=O)(=O)C2)cc1 (stereo not given),-0.8,i
CCCCOc1ccccc1NC(=O)Cn1c(-c2nonc2N)nc2ccccc21,0.5,.
COc1cccc(OCC(O)CN2CCOCC2)c1 (stereo not given),0.9,.
NC(=O)C1(N2CCCCC2)CCN(C(=O)c2ccc(C#Cc3ccccc3)o2)CC1,-0.8,.
CCCCN(CC)CCNc1c(NC2CCN(C(=O)OCC)CC2)c(=O)c1=O,-1.1,.
CCn1c(=O)cc(OCC(=O)NCCCN2CCC(C)CC2)c2ccccc21,2.9,.
COc1ccc(C(=O)CCC(=O)O)cc1,-0.3,.
CCCOc1c(OC)cccc1C1CC(=O)Nc2cc3c(cc21)OCCO3 (stereo not given),-1.0,.
CCCOc1ccc(OCCSc2ncccn2)cc1,0.5,i
Cc1cccc(N2CCN(C(=O)Cc3c(C(=O)O)[nH]c4ccc(Cl)cc34)CC2)c1C,1.1,.
O=C1C2CCCN2C(c2ccc(F)cc2)N1c1cccc(Cl)c1 (stereo not given),0.1,.
O=c1cc(COn2nnc3ccc(C(F)(F)F)cc32)nc2sccn12,-1.1,i
COc1ccc(C(=O)N2CCN(C3CCC(c4ccccc4)CC3)CC2)cc1OC (stereo not given),-2.7,i
CCOC(=O)N1CCN(CC(=O)c2c(C)[nH]c3ccccc23)CC1,-2.5,i
O=C(NCc1cccs1)c1cc(-c2cccc(Cl)c2)on1,-1.0,.
CCOC(=O)C1=C(C)Nc2ncnn2C1c1cc(OC)ccc1OC (stereo not given),-0.4,i
COc1ccc(NC(=O)CSc2nnc(Cn3c(=O)sc4ccccc43)n2C)cc1,-2.8,.
COc1cc2c(cc1OC)-c1nnc(-c3cccs3)n1C(C)(C)C2,-1.4,i
CC(C)(C)NC(=O)Nc1ccccc1C(N)=O,0.7,i
CC(C)N=c1cc2n(-c3ccc(Cl)cc3)c3ccccc3nc-2cc1Nc1ccc(Cl)cc1,-1.1,74*
Cc1nn(C)c(C)c1S(=O)(=O)NCc1cccs1,2.8,.
COc1ccc2cc3cc(C(=O)NCC4CCCO4)oc3nc2c1 (stereo not given),0.3,i
COc1ccccc1C1(CC(=O)N2CCOCC2)CCOC(C(C)C)C1 (stereo not given),-3.8,i
Cc1ccc(Cl)cc1N1CCN(C(=O)Cn2ccc3ccccc3c2=O)CC1,-0.7,.
CCc1c(C)c2c(C)[nH]nc2oc1=O,-0.5,.
COc1ccc(CCNC(=O)CCCCn2c(=O)[nH]c3ccccc3c2=O)cc1OC,-2.2,.
COc1ccccc1C1C(C(N)=O)=C(C)Nc2nc(-c3ccccc3Cl)nn21 (stereo not given),-1.8,.
O=C(CSc1nc2ccsc2c(=O)n1NC(=O)c1ccccc1)Nc1nccs1,-0.9,i
CCOC(=O)N1CCC(NC(=O)c2ccc3c(c2)N(CC)CCS3)CC1,2.2,i
O=C(Cn1cc2c(n1)CCCCC2)NC1CCN(Cc2ccccc2)CC1,2.7,.
Fc1cccc(NCc2cn3ccccc3n2)c1,5.3,i
Cc1ccc(S(=O)(=O)Cc2ccc(C(=O)NCCCN3CCN(C)CC3)o2)cc1,-0.4,i
CCOC(=O)C1=C(C)N(C)C(=O)NC1c1ccccc1OC (stereo not given),1.0,i
Cc1noc(C)c1S(=O)(=O)N1CCN(Cc2ccc3c(c2)OCO3)CC1,0.3,i
CCOC(=O)c1c(C)c(C(=O)NCc2cccnc2)c(C)n1C,0.1,.
C=CCn1c(-c2ccccc2)c[nH]c1=S,-1.9,i
CCSc1nnc(NC(=O)CSc2nc3c(c(=O)n2-c2ccccc2OC)SCC3)s1,0.3,.
OC(COc1ccc2ccccc2c1)CN1CCN(c2ccc(F)cc2)CC1 (stereo not given),-1.6,.
O=c1[nH]c(NCc2ccccc2)nc2c1CCCC2,-4.3,i
NS(=O)(=O)c1cc2c(cc1Cl)NC=NS2(=O)=O,-0.2,i
# (cont.)
SMILES,Proteasome disasm,VCAM-1 up
Cc1cc(-n2c(C)cc(C(=O)CSc3nnnn3-c3ccc(Cl)cc3)c2C)no1,0.5,i
Cc1sc2c(c1C)CN(Cc1ccco1)CN2C(=O)c1ccccc1,3.0,.
COc1ccc(N2C(=O)C(Cl)=C(Nc3c(C)n(C)n(-c4ccccc4)c3=O)C2=O)cc1,1.2,i
Brc1ccc(-c2nnc3sc(CN4CCN(c5ccccc5)CC4)cn23)cc1,-0.7,.
CCOC(=O)c1ccc(NC(=O)CSc2ncccn2)cc1,3.5,i
CCN1CCN(CCCNC(=O)c2cc3sccc3n2CC)CC1,-0.7,i
O=C(NCC1CCCO1)C1C2C=CC3(CN(Cc4cccs4)C(=O)C13)O2 (stereo not given),1.4,.
CC(=O)c1c(C)[nH]c(C(=O)N2CCN(C(=O)c3ccco3)CC2)c1C,0.3,i
COc1c(S(=O)(=O)n2nc(C)cc2C)ccc(Cl)c1Cl,-2.0,i
Cc1cccc(NC(=O)C2CCCN(S(=O)(=O)c3cccc4cccnc34)C2)c1 (stereo not given),0.5,.
FC(F)(F)c1cc(-c2ccco2)nc(N2CCOCC2)n1,-1.4,i
CC(=O)c1ccc(OCC(O)CN2C(C)CCCC2C)cc1 (stereo not given),-0.5,.
COCCN1C(=O)C(=O)/C(=C(/O)c2cccc(S(=O)(=O)N(C)C)c2)C12C(=O)N(C)c1ccccc12 (stereo not given),1.3,i
CCCOc1cc(C)c(S(=O)(=O)N2CCN(C)CC2)cc1C,-2.0,i
CCCCNC(=O)c1ccc2c(c1)ncn2C1CCCCC1,-1.5,.
CCOc1ccc2[nH]c(O)c(NC(C)=O)c2c1,-0.2,i
CNC(=O)Nc1cccc(C(F)(F)F)c1,0.8,i
COc1cccc(C(=O)Nc2ccc(C(=O)O)cc2)c1,2.3,.
O=C(c1ccccc1S(=O)(=O)NCc1ccccc1)N1CCCC1,-0.9,.
O=C1CC(c2ccc(Cl)cc2)n2nc(N3C(=O)c4ccccc4C3=O)nc2N1 (stereo not given),-1.2,i
COc1cccc(C(=O)NCc2n[nH]c(=S)n2-c2cccc(C)c2)c1,0.3,.
O=C(Cc1c(O)c2ccccc2[nH]c1=O)NCc1ccc(F)cc1,-1.4,i
COc1cccc(C(c2sc3nc(C)nn3c2O)N2CCC3(CC2)OCCO3)c1 (stereo not given),-0.8,.
CC1Cc2nc(SCC(=O)N3CCCc4ccccc43)n(C)c(=O)c2S1 (stereo not given),0.7,i
Cc1ccc(-c2nnc(SCC(=O)N3CC(C)CC(C)C3)o2)cc1C (stereo not given),0.7,i
O=C(NCCN1CCN(c2cccc(Cl)c2)CC1)c1cccn2c(=O)c3ccccc3nc12,-1.0,.
O=C(Cn1nnc2c(cnn2-c2ccc(F)cc2)c1=O)c1ccccc1F,0.1,i
O=C(Cn1cnc2c(nnn2Cc2ccc(F)cc2)c1=O)NCc1ccc2c(c1)OCO2,-1.2,.
Cc1ccc(N(C(=O)c2ccc(Br)o2)C2C=CS(=O)(=O)C2)cc1 (stereo not given),-0.9,.
CC1CCN(CCNC(=O)CN(C)S(=O)(=O)c2cccc3nsnc23)CC1,0.3,.
CCc1ccc(NC(=O)CCN2C(=O)c3cccnc3C2=O)cc1,2.8,.
CCc1[nH]nc2c1C(c1cccc(OC(=O)N3CCOCC3)c1)C(C#N)=C(N)O2 (stereo not given),0.7,i
Cc1ccccc1CN1C(=O)C2(OCCCO2)c2ccccc21,0.4,.
CCC(C)NC(=O)CS(=O)Cc1nc(-c2cccc(C)c2)oc1C (stereo not given),-1.6,.
CCN(c1ccccc1)c1cc(C)nc2nc(C)nn12,0.1,.
O=C(c1ccc2nc(N3CCOCC3)sc2c1)N1CCC2(CC1)OCCO2,-1.6,.
O=C(CCC(=O)c1cccs1)NCc1ccccc1,-3.8,i
CCC(=O)O[C@]1(C(=O)CCl)[C@@H](C)C[C@H]2[C@@H]3CCC4=CC(=O)C=C[C@]4(C)[C@@]3(F)[C@@H](O)C[C@@]21C,-0.4,i
CCS(=O)(=O)N1CCCC(C(=O)NCc2cccc(OC)c2)C1 (stereo not given),-0.7,i
CCN1CCN(C(c2cccs2)C(C)NC(=O)c2ccco2)CC1 (stereo not given),-2.0,.
CN(C1CCS(=O)(=O)C1)S(=O)(=O)c1cccc2nsnc12 (stereo not given),0.3,i
Cc1c(NC(=O)CN2C(=O)C3C4C=CC(C4)C3C2=O)c(=O)n(-c2ccccc2)n1C (stereo not given),0.8,.
CCOCC(=O)Nc1sc2c(c1C(=O)OCC)CCCC2,1.1,i
COC(=O)C(C#N)C(=C1C(=O)CC(C)(C)CC1=O)c1ccc(O)cc1 (stereo not given),0.6,i
COc1ccc(NC(=O)C(c2ccc(C)cc2)N(C)C(=O)c2cnccn2)cc1 (stereo not given),1.2,.
O=C(NCC1CCCO1)C1CCN(S(=O)(=O)c2cccc3nonc23)CC1 (stereo not given),-0.2,.
COc1ccc(C2=NOC(C(=O)Nc3ccc(C)cc3)C2)cc1OC (stereo not given),1.5,.
O=C(OCC#CCSc1nc2ccccc2s1)c1ccco1,0.1,i
COCCN(CC(=O)NCc1ccccc1)C(=O)CCC(=O)Nc1ccccn1,-0.9,i
CCOC(=O)N1CCN(S(=O)(=O)c2ccc3c(c2)CCN3C(=O)C2CCC2)CC1,0.1,.
CC(C)Oc1ccc(N2CC(C(=O)Nc3ccccc3F)CC2=O)cc1 (stereo not given),-0.5,i
Cc1ccc(-c2nc(CS(=O)CC(=O)NCc3ccc(Cl)cc3)c(C)o2)cc1 (stereo not given),1.1,.
Cn1c(SCC(=O)c2cc3ccccc3o2)nnc1-c1ccccc1,1.8,i
COc1ccc(-n2c(=S)[nH]c3cc(C(=O)NCc4ccco4)ccc3c2=O)cc1OC,-1.6,.
O=C1C2CCCN2C(c2ccccc2F)N1c1ccc(F)cc1 (stereo not given),2.5,.
CCOC(=O)c1ccccc1NC(=O)c1cc2sccc2n1C,-8.1,i
COC(=O)c1c(N)n(-c2cc(OC)cc(OC)c2)c2nc3ccccc3nc12,-1.1,i
O=C(CCN1C(=O)c2ccccc2C1=O)N1CCN(C(=O)c2ccccc2)CC1,-0.7,i
COc1ccc(CCNC(=O)CSc2nnnn2-c2ccccc2OC)cc1OC,0.0,i
